Source: PubChem BioAssay
Vif A3G: HIV-1 Vif–A3G interaction blockers – biochemical, TR-FRET, GST-Vif 1-94, biotin-A3G peptide, dose response retest, primary screen (AID 1117319); TR-FRET GST-Vif / biotin-A3G peptide binding; higher % means a stronger effect; test concentration not given here; strong numbers were not always called active; one-dose inhibition, %; IC50 in µM for titrated hits; 260,000 compounds, 0.57% hits;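 active = above the screen mean plus three standard deviations and confirmed in dose response; inconclusive = results disagree or hit not tested in dose response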;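 also: Vif residues 1-94 fused to GST binding biotinylated APOBEC3G peptide 110-148; 0% = full assay without inhibitor and 100% = GST in place of GST-Vif; retest series ran down from 100 µM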
UCH37 inh: human UCH37 deubiquitinating enzyme inhibition; Q9Y5K5; purified proteasome/UCH37, Ub-AMC cleavage fluorescence; inhibition, % (test concentration not listed); 330,000 compounds, 0.33% hits;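 active = mean of two replicates above 20%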;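 also: 0% = compound-free wells with enzyme and 100% = wells lacking proteasome; stock transfer was 100 nL into about 20 µL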
Target sequence (Q9Y5K5 whole entry, looked up): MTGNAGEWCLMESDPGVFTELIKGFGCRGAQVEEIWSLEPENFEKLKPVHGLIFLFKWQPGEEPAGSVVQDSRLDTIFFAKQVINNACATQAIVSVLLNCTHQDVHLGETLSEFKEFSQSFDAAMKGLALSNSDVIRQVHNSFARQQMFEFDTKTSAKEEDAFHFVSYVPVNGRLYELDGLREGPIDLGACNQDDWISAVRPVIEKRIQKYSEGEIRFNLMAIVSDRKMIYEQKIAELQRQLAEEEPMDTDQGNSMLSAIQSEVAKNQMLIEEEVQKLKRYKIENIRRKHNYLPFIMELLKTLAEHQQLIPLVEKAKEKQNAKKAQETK
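system = Proteasome-associated human UCH37 deubiquitinase | amount = 0.15 nM proteasome as dispensed | medium = pH 7.4 Tris-HCl (50 mM) with ovalbumin, ATP-MgCl2, DTT | incubation = 30 min preincubation with enzyme, 25 min cleavage at room temperature | detection = AMC fluorescence 355/460 nm | read-out basis = percent inhibition | controls = no-proteasome and no-compound wells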
E coli growth: blocks Escherichia coli growth. OD600 absorbance (test concentration not listed). AID 1053175. 330,000 compounds, 0.21% hits. OD600, 23 h; active compounds read low;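 active = OD600 absorbance below the run mean of sample wells minus 3.6 SD, in any replicate, cut at about 0.56 in these data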;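 also: stock transfer was 300 nL into about 60 µL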
MLL AF4-AF9 inh: blocks AF4 peptide binding to human AF9. P42568. AlphaScreen, biotin-AF4 peptide binding to FLAG-AF9. inhibition, % at 10 µM. 350,000 compounds, 0.47% hits. AID 651704;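 active = every replicate reaching a set inhibition limit, whatever the replicate mean, cut at about 25% in these data; inconclusive = mean inhibition reaches that limit but some replicates miss it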;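 also: 0% = plate neutral control median and 100% = total signal loss; the record names both 10 and 1 µM as test concentration; the first replicate is given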
FGF22 binding: FGF22 (human) thermal shift binding; recombinant FGF22 thermal shift, SYPRO orange fluorescence; percent of sucrose octasulfate shift, DMSO zero; Q9HCT0; calls only at 9.99 µM; 340,000 compounds, 1.5% hits; AID 651658;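 active = melting point raised past a set limit in the mean and every replicate; inconclusive = no clear call; three in four hits are not shown here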
Target sequence (Q9HCT0 whole entry, looked up): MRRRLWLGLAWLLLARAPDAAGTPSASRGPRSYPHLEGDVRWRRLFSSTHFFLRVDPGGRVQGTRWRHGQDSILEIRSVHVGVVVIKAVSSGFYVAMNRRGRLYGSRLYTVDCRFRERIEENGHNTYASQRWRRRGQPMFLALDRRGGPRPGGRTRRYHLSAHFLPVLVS
HNF4A DNA FP: change in binding of human HNF4 alpha to DNA | P41235 | HNF4a-FITC DNA binding, fluorescence polarization, 1 h | activity change, % at 10 µM | 360,000 compounds, 0.3% hits; in the data active = activity change above about 30%, passing the limit was not always enough;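 also: controls were the assay level and a saturating level of protein; the project sought stronger binding though the title names inhibitors; some compounds called inactive have numbers as strong as hits; positive values seem to mean higher polarization but the record does not say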
Target sequence (P41235 whole entry, looked up): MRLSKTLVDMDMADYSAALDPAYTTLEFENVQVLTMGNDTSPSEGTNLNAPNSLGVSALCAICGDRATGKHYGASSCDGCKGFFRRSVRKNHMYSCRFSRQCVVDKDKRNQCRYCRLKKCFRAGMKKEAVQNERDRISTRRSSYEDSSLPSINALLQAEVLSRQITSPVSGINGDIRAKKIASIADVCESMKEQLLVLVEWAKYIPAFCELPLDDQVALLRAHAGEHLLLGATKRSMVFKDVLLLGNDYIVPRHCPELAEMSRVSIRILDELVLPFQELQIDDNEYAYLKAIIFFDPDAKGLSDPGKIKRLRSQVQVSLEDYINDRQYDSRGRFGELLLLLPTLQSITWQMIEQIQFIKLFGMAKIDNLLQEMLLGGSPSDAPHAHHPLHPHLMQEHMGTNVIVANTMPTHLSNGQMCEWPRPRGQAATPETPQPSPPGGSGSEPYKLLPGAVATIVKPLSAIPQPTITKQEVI
RanGTP-Imp inh: inhibitors of RanGTP-importin-beta interaction, primary screen, biochemical, FRET, CFP-Ran, YFP-importin-beta, homogeneous | cell-free CFP-Ran/YFP-importin-beta FRET ratio | inhibition, % (concentration not given with the values) | 300,000 compounds, 1.1% hits | AID 2216;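 active = most replicates above 15%; inconclusive = exactly half above 15%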;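 also: 0% = DMSO wells and 100% = Ran loaded with GDP instead of GTP; wells of about 40 µL received 100 nL stock; the first replicate is given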
Active calls of the source: *; i = inactive; ? = inconclusive; . = no result given; + = active, no number; & = joins results of further samples.

SMILES	Vif A3G	UCH37 inh	E coli growth	MLL AF4-AF9 inh	FGF22 binding	HNF4A DNA FP	RanGTP-Imp inh
N#CCC(=O)Nc1ccc(C(=O)OCC(=O)NC(=O)Cc2ccccc2)cc1	3%	0.4	0.64	-1.5	i	-2.5	-0.7
COc1ccc(/C=C/S(=O)(=O)NCc2ccccc2)cc1OC	.	0.1	.	0.9	i	-0.9	-1.3
Cc1cc(NC(=O)CSc2nnnn2-c2ccc(C)c(C)c2)no1	1%	1.9	0.68	-1.6	.	-2.5	-1.2
C=CCC1(CC=C)CCCN1C(=O)c1cc(COc2ccc(C)nc2)on1	.	3.2	0.73	-0.5	i	2.1	2.6
O=C(COc1ccc(NC(=O)c2ccccc2[N+](=O)[O-])cc1)c1ccc(F)cc1	-4%	3.1	0.61	-1.1	i	-0.1	4.9
COc1ccc(Cc2nnc(NC(=O)Nc3ccccc3OC)s2)cc1	3%	1.1	0.71	2.7	i	2.2	0.2
O=C(Cc1ccc(Br)cc1)NNC(=O)c1cccs1	-5%	1.0	0.65	-1.1	i	0.7	.
C=C(C)C1CC=C(C)/C(=N/NC(=O)c2ccccc2[N+](=O)[O-])C1 (centres undefined)	5%	.	.	6.5	i	1.6	2.3
Cn1c2c(c(=O)n(C)c1=O)CN(Cc1ccccc1)CN2	.	.	.	-4.9	i	-1.7	.
COc1ccc(-n2nc(C(=O)NCC(=O)Nc3cc(OC)c(OC)c(OC)c3)c3ccccc3c2=O)cc1Cl	.	3.0	0.66	-2.7	i	-2.2	0.8
Cc1ccccc1NC(=S)N(CCc1c(C)[nH]c2ccc(F)cc12)Cc1cccnc1	-1%	7.0	0.67	11	.	0.6	1.5
Cc1ccc(NC(=O)c2ccccc2OCC(=O)c2ccc(F)cc2)cc1	-5%	1.2	.	.	.	-4.6	-6.5
Cc1cc(Cl)ccc1NC(=O)CSc1nnc(Cc2cccs2)n1Cc1ccco1	7%	1.0	0.75	.	.	42*	4.7
COc1ccc(/C(N)=N/OC(=O)CSc2ccccc2)cc1OC	6%	4.0	0.72	.	.	-0.2	3.0
Cc1ccc(CSCC(=O)Nc2ccc(N3CCOCC3)cc2N2CCOCC2)cc1	.	.	.	0.3	i	-3.3	4.2
Cc1ccc(-n2c(SCc3nc4ccccc4[nH]3)nnc2-c2ccncc2)cc1	31%	3.0	0.66	11	i	4.4	1.0
O=C(CCN1C(=O)/C(=C\c2ccccc2)SC1=S)NNC(=O)c1ccncc1	4%	9.6	0.64	0.4	i	0.2	0.2
Cc1ccccc1C(=O)Nc1cccc(-c2ccc3nncn3n2)c1	-5%	1.9	0.63	-1.4	i	3.4	7.5
COc1ccc(NC(=O)NC2CCCCCCC2)cc1	-2%	1.9	0.68	-2.1	i	0.8	-1.7
Cc1ccc(C)c(OCC(=O)Nc2nc3ccc([N+](=O)[O-])cc3s2)c1C	-3%	3.9	0.71	.	.	-0.3	2.6
Cc1nnc(SCCn2c(Br)nc3c2c(=O)n(C)c(=O)n3C)s1	-3%	-1.2	0.71	.	.	2.4	-0.7
O=C(NCCNC(=O)c1ccco1)c1ccc(Cl)c(Cl)c1	.	2.6	0.64	-3.3	i	2.5	1.0
Cc1ccc(-c2csc3ncn(-n4c(C)ccc4C)c(=O)c23)o1	?	-1.6	.	.	.	-0.1	6.3
COc1cc(C(=O)Nc2ccccc2N2CCN(S(C)(=O)=O)CC2)cc(OC)c1OC	-2%	1.1	0.75	.	.	0.3	-1.8
C/C(Cn1nnc2ccccc21)=N\NC(=O)c1ccc(Br)cc1	-3%	.	.	-3.4	i	-2.2	-2.5
CCOC(=O)C1=C(c2ccccc2)NC(=O)NC1c1cc(Br)c(O)c(OC)c1 (centres undefined)	-2%	2.0	0.63	2.1	i	0.4	?
COc1ccc(OC)c(Nc2nc(-c3ccncc3)nc3ccccc23)c1	11%	-59	0.69	-0.3	i	-6.3	6.8
Cc1ccc2c(COC(=O)CNC(=O)c3ccccc3)cc(=O)oc2c1	-1%	-5.9	0.71	-0.3	i	-4.7	?
COc1ccc2nc(NC(=O)CCc3ccc(OC)c(OC)c3)sc2c1	-7%	-1.5	0.68	0.5	i	1.3	-0.6
CC1Cc2ccccc2N1C(=O)CCS(=O)(=O)c1cccs1 (centres undefined)	?	0.8	0.74	.	.	5.2	3.7
CCN1C(=O)c2cccc3c(NC(=O)c4ccc(OC)c(OC)c4)ccc1c23	-4%	4.6	0.73	-4.9	i	2.5	?
O=C(NCCCN1CCCC1=O)c1ccc(Cl)c(Cl)c1	4%	0.8	0.68	-3.0	i	2.9	-5.1
O=C(Nc1nc2ccccc2[nH]1)C1CC(=O)N(c2ccc3c(c2)OCCO3)C1 (centres undefined)	12%	1.9	0.7	.	.	-4.3	0.9
CCOC(=O)c1ccccc1NC(=O)CN(c1ccccc1)S(=O)(=O)N(C)C	4%	0.3	0.64	.	.	0.5	1.1
COc1ccc(C(=O)Nc2ccc3oc(-c4cccnc4)nc3c2)cc1OC	-12%	-26	0.73	-1.8	i	-3.6	-9.0
CCCCC(O)(CCCC)C(=O)NN(C(=O)OC)c1ccc(C)cc1	9%	5.8	0.66	0.1	i	0.5	1.2
CCC(C)(C)NC(=O)C(c1ccc(C)o1)N(Cc1cccs1)C(=O)Cn1nnc2ccccc21 (centres undefined)	-5%&-1%	4.7	0.68	.	.	-1.3	-0.4
CC1CCN(c2ccccc2NC(=O)c2cc3ccccc3o2)CC1	.	1.7	0.68	-5.8	i	-4.4	0.4
COc1cc(C(=O)Nc2sc(C(=O)N3CCOCC3)c(C)c2C#N)cc(OC)c1OC	0%	-1.7	0.76	.	.	0.1	0.9
O=CC(=O)c1ccccc1	.	1.5	0.63	.	i	-0.4	.
O=C(O)/C=C/c1ccc(O)c(O)c1	.	2.8	.	5.0	i	3.0	1.7
Cc1cc(C(=O)COC(=O)c2ccc(NC(=O)CC#N)cc2)c(C)n1CCc1ccc(F)cc1	-6%	4.0	0.67	-0.3	i	15	.
Clc1cccc(-c2cc3nc4c(c(NCc5ccco5)n3n2)CCCC4)c1	-5%	-57	0.71	.	.	-2.2	-2.6
Cc1ccc(NC(=S)NCCC2=CCCCC2)cc1	10%	0.7	0.72	-2.8	.	-2.3	1.4
O=C(Oc1ccc(Cl)cc1)c1ccc(N2CCOCC2)c([N+](=O)[O-])c1	.	4.2	0.72	-0.9	i	-1.6	-0.9
O=C(OCCOc1ccccc1Cl)c1ccc(-n2cnnn2)cc1	-5%	0.1	0.7	.	.	2.5	-1.7
CCN(CC)S(=O)(=O)c1ccc(C(=O)Oc2ccc3c(c2)OCO3)cc1	7%	-1.3	0.67	.	.	-0.6	?
CCOC(=O)[C@]12CCC=C1N(Cc1ccc3c(c1)OCO3)C(=O)[C@H](CC(=O)NCc1ccc(C)o1)C2	.	.	.	-0.6	i	-0.4	.
Fc1ccccc1Nc1n[nH]c(=S)s1	1%	1.8	0.66	-4.3	+	2.7	-2.2
COc1cc(C#Cc2c(-c3cncn3C)n(C)c3ccc(-c4ccc(OC)c(OC)c4)cc23)cc(OC)c1	.	-19	0.72	.	.	2.0	.

An excerpt from above, reduced to FGF22 binding and UCH37 inh.
Molecule | FGF22 binding | UCH37 inh
CCOC(=O)[C@]12CCC=C1N(Cc1ccc3c(c1)OCO3)C(=O)[C@H](CC(=O)NCc1ccc(C)o1)C2 | i | .
Fc1ccccc1Nc1n[nH]c(=S)s1 | + | 1.8

Next records:
SMILES	Vif A3G	UCH37 inh	E coli growth	MLL AF4-AF9 inh	FGF22 binding	HNF4A DNA FP	RanGTP-Imp inh
Cc1ccc(SCCC(=O)Nc2cccc(N(C)S(C)(=O)=O)c2)cc1	8%	0.2	0.64	.	.	1.6	-2.1
CCOC(=O)c1cc(CC)sc1NC(=O)Cc1ccsc1	-6%	-1.5	0.71	.	.	1.5	1.3
CN1CCCC1CCNc1ccc2oc3ccccc3c(=O)c2c1 (centres undefined)	.	3.8	0.66	9.2	i	.	-73
O=C1CSC(c2cccc([N+](=O)[O-])c2)N1c1ccc(O)cc1 (centres undefined)	-7%	1.3	0.65	-0.1	i	2.6	-0.3
CCOC(=O)C1CCN(C(=O)CCCN2C(=O)c3ccccc3C2=O)CC1	-2%	2.0	0.72	.	.	1.8	-3.6
CCCCc1nnc(NC(=O)CSc2nc(N)cc(=O)[nH]2)s1	2%	1.9	0.68	-3.3	i	5.9	-0.3
O=C(NC1CCCCC1)c1cc(C2CC2)nn1-c1ccccc1	-3%	-0.2	0.67	-1.3	i	-0.9	.
CC(C)C(=O)Nc1ccccc1C(=O)OCC(=O)c1ccc2c(c1)OCCO2	.	0.8	0.64	.	.	0.9	-0.7
Cc1ccc(NC(=O)COc2ccc(C(=O)c3ccccc3)cc2)c(O)c1	.	3.1	0.69	-3.3	i	3.3	5.0
Cc1ccc(-c2nnn(CC(=O)N(CC3CCCO3)C(C(=O)NC(C)(C)C)c3ccc(F)cc3)n2)o1 (centres undefined)	20%	4.0	0.68	.	.	-0.3	-2.3
CCn1c(COc2ccc(=O)n(-c3ccccc3)n2)nnc1SCc1ccc(C)cc1	76%	5.1	0.71	.	.	-0.6	-1.3
Cc1ccc(OC(=O)COc2ccccc2C)cc1	.	5.6	0.67	-2.4	i	6.1	4.6
Cn1ccnc1SCC(=O)c1ccc(F)cc1	.	3.1	0.62	-3.4	i	11	-3.4
CC1CCN(CCCn2c(SCC(=O)Nc3ccccc3Cl)nc3ccccc3c2=O)CC1	24%	2.2	0.72	9.0	i	1.7	0.7
COc1ccc(NC(=O)COC(=O)CCc2ccc(S(=O)(=O)N3CCOCC3)cc2)cc1OC	.	2.4	0.71	3.2	i	-2.1	.
Cc1ccc(S(=O)(=O)/N=C/c2c(O)ccc3ccccc23)cc1	3%	.	.	2.4	i	0.5	-1.3
CCOc1cc(/C=N/NC(=O)COc2cccc(C)c2)ccc1OC(=O)c1cccs1	0%	.	.	.	.	-4.1	-1.0
COc1ccc2nc(SCC(=O)Nc3nonc3C)[nH]c2c1	1%	3.9	0.69	-4.2	i	2.4	3.9
COc1cccc(OCC(=O)Nc2ccccc2C(=O)Nc2ccc(C(=O)O)cc2)c1	-2%	5.6	0.69	-1.1	i	0.6	2.5
Cc1cc(OCC(=O)O/N=C(\N)Cc2cccs2)ccc1Br	?	.	.	1.2	i	-0.2	4.6

Next section; the last 2 above are carried over.
SMILES	Vif A3G	UCH37 inh	E coli growth	MLL AF4-AF9 inh	FGF22 binding	HNF4A DNA FP	RanGTP-Imp inh
COc1cccc(OCC(=O)Nc2ccccc2C(=O)Nc2ccc(C(=O)O)cc2)c1	-2%	5.6	0.69	-1.1	i	0.6	2.5
Cc1cc(OCC(=O)O/N=C(\N)Cc2cccs2)ccc1Br	?	.	.	1.2	i	-0.2	4.6
CC1CCC(NC(=O)COC(=O)c2cccnc2Cl)CC1 (centres undefined)	-7%	2.2	0.71	-4.0	i	2.3	.
COC(=O)c1cc(OC)c(OC)cc1NC(=O)CN1CCCCC1	4%	-3.9	0.66	2.1	i	-1.0	-1.8
COc1ccc2sc(-c3ccc(S(C)(=O)=O)cc3)c(C(=O)NCCCN3CCCC3=O)c2c1	-6%	-6.2	0.7	0.3	i	-1.4	.
N#C/C(C(=O)NCc1ccco1)=C1/SC=C(c2ccccc2)N1c1ccccc1	-46%	-17	0.71	.	.	-0.9	-1.2
CSc1ccccc1C(=O)N1CCCCC1	8%	0.2	0.61	-1.4	i	-2.0	2.8
COc1cccc(-n2nnc3c(=O)n(CC(=O)Nc4cc(C)on4)cnc32)c1	9%	0.5	0.73	-1.8	i	-1.0	2.2
O=C(COC(=O)CCc1c[nH]c2ccccc12)NC(c1ccccc1)c1ccccc1	.	5.7	0.74	.	.	-0.8	-13
CCc1ccc[n+](-c2[nH]c(=O)sc2/C=N/NC([S-])=Nc2ccccc2)c1	30%	.	.	4.6	i	-87	-6.9

This is a subset; the hit share may differ from the screen's.
